Calb biofilm kill: mixture kills Candida albicans biofilm cells | C. albicans biofilm persisters + clotrimazole, fluorescence viability; primary screen in compound mixtures of four per well | inhibition, % at 7.6 µM | 120,000 compounds, 0.02% hits;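 active = inhibition above 30.3% in the primary screen of four-compound pools, then above 30% when the compound was retested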;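 also: compounds exposed to preformed 24 h biofilms for 48 h; the number belongs to the whole pool; some results filed as inactive read as strong as hits; inactives centre near 12; 0% = biofilm with clotrimazole alone and 100% = kill control; retested singly at about 60 µM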
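Test system: C. albicans CAF4-2 wild-type biofilms; buffer or medium: RPMI/MOPS medium, pH 7.0; schedule: 24 h biofilm formation, then 48 h compound exposure, 37 °C; detection: Alamar Blue fluorescence; measure: percent inhibition of biofilm viability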
Numbers without * were called inactive. Not all compounds are listed; the hit share may differ from the screen's.

SMILES	Calb biofilm kill
CC(C)N1CCC(N2CCN(C/C=C/c3ccc(F)cc3)CC2CCO)CC1 (stereo not drawn)	24
CC1=C(C)C(=O)C(CCCCC#CCCCC#CCO)=C(C)C1=O	22
Cc1ccc2oc(/N=C(\N)NC(=O)C(C)(C)C)nc2c1	15
COCCNC(=O)c1cc2cc(Cl)cc(Cl)c2oc1=O	4
COC(=O)c1ccc(CNC(=O)COC(=O)c2ccc(N(C)C)cc2)cc1	8
O=C(NCCNc1ccc(Cl)cc1[N+](=O)[O-])c1cccnc1	10
Cc1cc(C)c2c(n1)sc1c(=O)n(-c3ccccc3)c(=O)[nH]c12	16
O=C(NC1CCN(C(=O)C2CCCCC2)CC1)c1ccccc1	26
Cc1ccc(-n2c(C)c([N+](=O)[O-])c3ccc(O)cc32)cc1	15
Oc1ccccc1N=Cc1c(O)ccc2oc3c(c12)CCCC3	22
Cc1ccc(NC(=O)C2CCN(c3nc(C)cc(C)n3)CC2)cc1	-4
COC(=O)C1=C(C(=O)OC)[C@@H]2N(C)c3ccccc3[C@@]23C[C@@H](C(=O)OC)N(C(=O)CC(C)C)C3=N1	13
COC(=O)c1c(C)nc(C)c(C(=O)OC)c1-c1cccs1	-6
O=c1c(C=NCCCO)c(-c2ccccc2)[nH]n1-c1nc2ccccc2s1	13
CCn1c2ccccc2c2cc(NC(=O)CNC)ccc21	10
CCc1ccc(OCCCC(=O)Nc2ccc(N3CCOCC3)cc2)cc1	15
CCN(CC)S(=O)(=O)c1cccc(N2CC(O)=C(c3ccccc3)C2=N)c1	16
COc1ccc(NC(=O)c2nc(C)c(C3(C)CC(c4cccnc4)=NO3)s2)cc1 (stereo not drawn)	12
COc1ccc(OC)c(NC(=O)Nc2nnc(N3CCCCC3C)s2)c1 (stereo not drawn)	5
CC(=O)c1sc(NC(=O)c2cccnc2Cl)nc1C	49
Cc1cc(=O)oc(C)c1C(=O)NC1CCCCCCC1	5
COc1ccc(CCNC(=O)COC(=O)/C=C/c2ccc(OC)c(OC)c2)cc1	21
CC(C)NS(=O)(=O)c1ccc(CCC(=O)N2CCCCC2)cc1	18
CCOC(=O)c1cc2c(=O)n3ccccc3nc2n(C(C)C)c1=NC(=O)c1ccco1	3
CC1(C)CC(=O)C(C=NCCN2CCN(CC(=O)Nc3ccccc3)CC2)=C(O)C1	5
O=C(Nc1ccc(Cl)cn1)c1ccc(Br)c(S(=O)(=O)N2CCCCC2)c1	22
CC(C)c1ccc(OCC(=O)N(Cc2ccccc2)c2ccccn2)cc1	10
Cc1nc2c(C#N)c[nH]n2c(=O)c1CCO	23
CCCCC(=O)N/N=C(/C)C1=C(C)C(C)(C)OC1=O	13
CC(=O)c1ccc(S(=O)(=O)N2CCN(C)CC2)cc1	18
Cn1c(=O)c2c(ncn2CC(=O)OCC(=O)NC(c2ccccc2)c2ccccc2)n(C)c1=O	21
CCN=c1sc(C(=O)Nc2ccccc2)c(C)n1CC	10
CCN1C=CC2=C(C#N)C(N)C(C#N)(C#N)C(c3ccccc3C(F)(F)F)C2C1 (stereo not drawn)	16
CC1(C(=O)O)C=CC2(CCCCC2)N1C(=O)c1ccccc1 (stereo not drawn)	20
CCCOc1ccc(/C(O)=C2/C(=O)C(=O)N(CCCn3ccnc3)C2c2cccnc2)cc1 (stereo not drawn)	19
CC(C)C(=O)NC(=S)/C=C1/N(C)c2ccccc2C1(C)C	5
COc1ccc(N2CCN(c3ncnc4c3nnn4Cc3ccccc3Cl)CC2)cc1	-4
CN(N)C(=S)Nc1ccc(F)cc1	10
O=C(NC(=O)c1cnccc1C(F)(F)F)Nc1ccccc1	9
CCOC(=O)C1CCN(C(=O)Nc2cc(Cl)cc(Cl)c2)CC1	13
Cc1cc(C)n(-c2ccc(Cl)c(C(=O)O)c2)n1	8
O=C(Nc1ccc(O)cc1)/C(=C/c1ccco1)NC(=O)c1ccccc1	19
Cc1ccc(NC(=O)c2cc(N3C(=O)CCC3=O)ccc2N2CCCCC2)cc1	14
CCCCCCCOC(=O)c1nc(Cl)c(Cl)c(N)c1Cl	1
CCOc1ccc(C(=O)Nc2ccc(N3CCN(C)CC3)cc2)cc1[N+](=O)[O-]	10
O/N=C/c1nc2cc(Cl)ccc2o1	7
O=C(O)c1cc(-c2ccc(O)cc2)on1	7
O=C(Cn1nnc2ccccc21)c1cccc([N+](=O)[O-])c1	10
COc1ccc(CCCC(=O)Nc2ccccc2F)cc1	5
CCCC(=O)n1nc(-c2cccnc2)nc1NCc1cccs1	13

Part of the list above in order of count of non-hydrogen atoms, descending:
SMILES	Calb biofilm kill
CCCC(=O)n1nc(-c2cccnc2)nc1NCc1cccs1	13
COc1ccc(CCCC(=O)Nc2ccccc2F)cc1	5
CCCCCCCOC(=O)c1nc(Cl)c(Cl)c(N)c1Cl	1
O=C(O)c1cc(-c2ccc(O)cc2)on1	7

Next part:
SMILES	Calb biofilm kill
COCCNC(=O)CSC1=N/C(=C/c2ccc(Cl)c(Cl)c2)C(=O)N1c1ccccc1F	6
Cc1ccc(S(=O)(=O)CCC(=O)NCc2ccc(Cl)cc2)cc1	10
CCOc1ccc(CN2CCN(Cc3cccn3-c3ncccn3)CC2CCO)cc1 (stereo not drawn)	12
NC(=O)c1ccccc1NS(=O)(=O)c1ccc(F)cc1	6
Cc1cccnc1NC1CCCCC1	15
Cc1cc(C)c(C(=O)Nc2ccc(Br)c(C(F)(F)F)c2)c(C)c1	7
COc1ccc(C(=O)N/C(=C\c2cc(OC)c(OC)cc2[N+](=O)[O-])C(=O)NCCO)cc1	16
O=C(O/N=C1\CCCc2ccccc21)C1CC1	12
O=[N+]([O-])c1cc2c(cc1/C=N/n1cnnc1)OCO2	13
O=C(COC(=O)/C=C/c1ccc(S(=O)(=O)N2CCOCC2)cc1)NCc1ccc(Cl)cc1	8
CCCCN(C(=O)/C=C/c1ccco1)c1c(N)n(CC(C)C)c(=O)[nH]c1=O	7
CCOc1ccc(NC(=S)N(CCN2CCOCC2)Cc2cc3cc4c(cc3[nH]c2=O)OCCO4)cc1	32
C=CCN(CC=C)CC(O)CN(c1cc([N+](=O)[O-])ccc1OC)S(=O)(=O)c1ccccc1 (stereo not drawn)	18
Nc1nc(Nc2ccccc2)n[nH]1	22
Cc1ccc(CN2CCN(Cc3cn[nH]c3-c3cccc(F)c3)CC2CCO)o1 (stereo not drawn)	12
CCCN(CC1COc2ccccc2O1)C(=S)Nc1ccc(C)cc1 (stereo not drawn)	11
O=C(Nc1ccccc1C(F)(F)F)c1cc(S(=O)(=O)N2CCOCC2)ccc1F	13
CC(=O)OCC(=O)[C@H]1CC[C@H]2[C@@H]3CCC4=CC(=O)CC[C@]4(C)[C@H]3CC[C@]12C	19
O=C(Nc1cc([N+](=O)[O-])ccc1F)c1cccs1	8
Cc1ccccc1NC(=S)NC(NC(=O)c1ccco1)C(Cl)(Cl)Cl (stereo not drawn)	15
COc1ccc(-n2c(O)c(C=Nc3ccccc3)c3ccccc3c2=O)cc1	25
COc1ccc(NC(=O)C(c2ccc(OC)cc2)N(Cc2ccco2)C(=O)CC2NC(=O)NC2=O)cc1 (stereo not drawn)	6
COc1ccccc1C(=O)OCC(=O)Nc1ccccc1OC(F)F	21
CC(C)CN(C(=O)CN1CCN(S(=O)(=O)c2ccc3ccccc3c2)CC1)c1c(N)n(CC(C)C)c(=O)[nH]c1=O	12
CN(C)c1cccc(C(=O)N2CCCC(C(=O)c3cc(F)ccc3F)C2)c1 (stereo not drawn)	21
O=C(CN(CC1CCCO1)C(=O)CCC(=O)Nc1ccccn1)NCc1ccccc1 (stereo not drawn)	9
O=C(COC(=O)COc1cccc2ccccc12)NCC(F)(F)F	6
COc1ccc(CCN2C(=O)NC(NS(=O)(=O)c3ccc(N)cc3)(C(F)(F)F)C2=O)cc1OC (stereo not drawn)	6
O=C(Cc1ccc([N+](=O)[O-])cc1)N1CCCCCC1	6
COc1cc(C=Nc2cccc([N+](=O)[O-])c2C)ccc1OC(C)=O	13
CC(C)(C)SCCNC(=O)/C=C/c1ccc([N+](=O)[O-])cc1	19
Cc1cc(C)c[n+](-c2nc3ccccc3nc2[N-]S(=O)(=O)c2ccc(Cl)cc2)c1	1
CCOc1ccc(NC(=O)CC2C(=O)N(c3ccccc3)C(=O)N2Cc2ccco2)cc1 (stereo not drawn)	6
COc1ccc2c(c1)CC/C(=C\C=C\c1ccccc1)C2=O	13
COc1cc(/C=N/NC(=O)c2ccccc2)ccc1OS(=O)(=O)c1ccccc1	11
COc1ccc2nc(Nc3nc(CSc4nnc(C)s4)cc(=O)[nH]3)nc(C)c2c1	19
CCc1ccccc1NC(=O)Cn1nnc(C(=O)NCc2cccs2)c1N	20
COc1ccc(C2C=C(C34CC5CC(CC(C5)C3)C4)NC(=S)N2)cc1OC (stereo not drawn)	14
COc1cc(/C=N/NC(=O)c2cnccn2)cc(OC)c1OC	16
O=C1c2cccc(OCC(=O)N3CCCc4ccccc43)c2CCN1Cc1ccccc1	-3
O=C(COC(=O)CCSc1ccccc1Cl)NCc1ccco1	0
CCOC(=O)CSc1ncnc2c(C(=O)OCC)c3n(c12)CCC3	-11
O=c1[nH]snc1N1CCOCC1	7
Cc1cc(C)c2c(N)c(C(=O)c3ccc(Br)cc3)oc2n1	14
COC(=O)C(NC(=O)c1ccc(C)cc1)(Nc1cccc(C)n1)C(F)(F)F (stereo not drawn)	14
Cn1nc(-c2ccc(N3CCN(CCO)CC3)c([N+](=O)[O-])c2)c2ccccc2c1=O	5
CC1=CC(=C(C#N)c2nc3ccccc3s2)C=C(C)N1c1ccc(F)cc1F	24
C=CCc1cc(Cl)ccc1OCCOCCN(C)C	-33
COCCCNCC#CCOc1ccc(OC)cc1	7
COc1ccc(C(=O)NC(=S)Nc2ccc(CN3CCCCC3)cc2)cc1Cl	12
(further entries)
SMILES	Calb biofilm kill
COCc1cc(N2CCOCC2)nc(SCc2ccc(Cl)cc2)n1	7
COc1cccc(C(=O)Nn2c(-c3cccs3)nc3ccccc3c2=O)c1OC	14
COc1ccc(N2CCN(CC(O)COCCOc3ccc(Br)cc3)CC2)cc1 (stereo not drawn)	10
CS(=O)(=O)NCCSc1cc(C(F)(F)F)nc2ccccc12	12
Cc1c(N)cccc1-n1cccc1	16
O=S(=O)(/N=C(/Nc1ccccc1)c1ccccc1O)c1ccccc1	3
COC(=O)CCNC(=O)c1ccc2[nH]c(C)c(C)c2c1	12
Cc1cc(OCCN2CCCC2)ccc1[N+](=O)[O-]	20
COc1cccc(NC(=S)NC(=O)c2c(Cl)c(C)nn2C)c1	17
CCC(C)(C)n1nnnc1C(c1ccc(C)cc1)N1CCN(Cc2ccc3c(c2)OCO3)CC1 (stereo not drawn)	13
Cc1cc([N+](=O)[O-])ccc1NC1CCCC1	7
CCCNC(=O)c1ccc(Cn2cc(C(F)(F)F)ccc2=O)cc1	14
COc1ccc(/C=C/C(=O)Nc2cc(S(=O)(=O)N3CCOCC3)ccc2C)cc1OC	1
COc1ccc(/C=N/OC(=O)Nc2ccc(Cl)cc2)c(OC)c1	11
CCOc1ccccc1N(C)C(=O)c1cc2c(=O)n(CC)c3ccccc3c2s1	18
Cc1ccc(NC(=O)CCCSc2nc3ccccc3[nH]2)cc1	16
COc1ccc(-c2c(C#N)c(N)nc3c2CCC3)cc1	4
O=C(COC(=O)c1ccc(O)cc1)NCCCc1ccccc1	7
CCCCS(=O)(=O)/C=C/[C@H]1[C@H](S(=O)(=O)CCCC)[C@H]2C=C[C@@H]1C2	20
Cc1oc(-c2cccc(C(F)(F)F)c2)nc1CN1CCOCC1	10

The closing seven compounds of the part above are carried over, then new ones follow.
SMILES	Calb biofilm kill
COc1ccc(/C=N/OC(=O)Nc2ccc(Cl)cc2)c(OC)c1	11
CCOc1ccccc1N(C)C(=O)c1cc2c(=O)n(CC)c3ccccc3c2s1	18
Cc1ccc(NC(=O)CCCSc2nc3ccccc3[nH]2)cc1	16
COc1ccc(-c2c(C#N)c(N)nc3c2CCC3)cc1	4
O=C(COC(=O)c1ccc(O)cc1)NCCCc1ccccc1	7
CCCCS(=O)(=O)/C=C/[C@H]1[C@H](S(=O)(=O)CCCC)[C@H]2C=C[C@@H]1C2	20
Cc1oc(-c2cccc(C(F)(F)F)c2)nc1CN1CCOCC1	10
COc1ccc(NC(=O)NC(=O)c2cc(OCC(F)(F)F)ccc2OCC(F)(F)F)cc1	17
COc1cc(CCC(=O)OCC(=O)NCc2ccccc2)cc(OC)c1OC	13
O=C1CCC/C(=N\NC(=O)COc2ccc(Cl)cc2)C1	16
CC(=O)c1cn(C)c(=O)n(C)c1=O	-16
CN(C)NC(=S)NC1CC2CCC1C2 (stereo not drawn)	12
COc1ccc(N/C=C\C(=O)c2ccc(Br)cc2)cc1OC	2
Cc1onc(-c2ccccc2)c1C(=O)OCC(=O)Nc1cc(S(=O)(=O)N2CCOCC2)ccc1Cl	16
CN(C)C(=S)NC(C)(C)C	18
CCOC(=O)C1(Cc2cccc(F)c2)CCN(C(=O)COC)CC1	33
Cc1ccc2nc(NC(=O)C3CCN(S(=O)(=O)c4cc([N+](=O)[O-])ccc4Cl)CC3)sc2c1	14

Assay outcomes: PubChem, PCMD
